# Assay outcomes (PubChem)
# Vaccinia Venus = qHTS for Stage-Specific Inhibitors of Vaccinia Orthopoxvirus: Venus Reporter Primary qHTS; Vaccinia virus Venus reporter expression, fluorescence; Potency, µM (titrated, usually from 36.5 µM), without a hit: at the highest dose activity change, negative = inhibition, most hits filed as inhibitors; hit rate 0.46% among 330,000; active means well fitted inhibition curve with a large enough effect; inconclusive means small, poorly fitted or top-dose-only effect; inactive means no such curve, though single readings can be large or run the other way; tested in A549 cells; note: nearly all actives have a fitted effect of over 30% in size; inactives centre near -10
# Vaccinia mCherry = qHTS for Stage-Specific Inhibitors of Vaccinia Orthopoxvirus: mCherry Reporter Primary qHTS | Vaccinia virus mCherry reporter infection, fluorescence; about a quarter of the inactives have no number | Potency, µM (titrated, usually from 36.5 µM), without a hit: top-dose activity change, negative = inhibition, hits mostly inhibitors | hit rate 0.63% among 310,000; active = well fitted inhibition curve with a large enough effect; inconclusive = small, poorly fitted or top-dose-only effect; inactive = no such curve, though single readings can be large or run the other way; tested in A549 cells; note: nearly all actives have a fitted effect of over 35% in size; inactives centre near -10
# An asterisk follows results filed as active; i = inactive; ? = inconclusive; / = no result given; & = joins results of further samples; [ ] = another dose, or the depositor's remark. % is set by controls: 0 for no effect and ±100 for the full control effect; potency is the fitted concentration of half-maximal effect.
SMILES,Vaccinia Venus,Vaccinia mCherry
Cc1ccc(S(=O)(=O)N2CC=C(c3c(C)n(CC(=O)N4CCCC4)c4ccccc34)CC2)cc1C,-7%,-8%
O=C(Nc1ccccc1-c1nnc(SCc2ccc(Cl)cc2Cl)o1)c1ccccc1,-3%,-15%
Cn1cc(S(=O)(=O)c2cccc(Cl)c2)c(=O)c2cc(F)c(N3CCN(c4ccccc4)CC3)cc21,-20%,-17%
O=C(O)CCCCCN1C(=O)CSC1=S,-4%,/
CCn1c(C)c(C(C)=O)c(N2CCN(c3ccccc3)CC2)nc1=S,18%,/
CCC1(C2=NCCN2)Cc2ccccc2O1 (stereo not drawn),-16%&-13%,-25%&-10%
COc1ccc(NC(=O)N(C)C[C@@H]2Oc3cc(C#CCN(C)C)ccc3S(=O)(=O)N([C@H](C)CO)C[C@H]2C)cc1,-6%,-15%
O=C1c2c(O)cc(O)cc2O[C@H](c2ccc(O)cc2)[C@H]1O,-4%,-4%
CCN(CC(=O)Nc1cc(Cl)ccc1C)C(=O)Cc1sc(C)nc1-c1ccc(F)cc1,-11%,-23%
CC(C)(C)CNc1cc(N2CCOCC2)ccc1[N+](=O)[O-],-18%,-15%
C[C@@H]1CN([C@H](C)CO)C(=O)CCCn2nncc2CO[C@H]1CN(C)S(=O)(=O)c1cccs1,-12%,-2%
CCOC(=O)CSC1=N/C(=C\c2cc(OC)c(OC)c(OC)c2)C(=O)N1C,-6%,-14%
CCc1cc2c(CN3CCN(Cc4ccccc4)CC3)cc(=O)oc2cc1O,-28%,-8%
CC(C)CC(=O)Nc1cc(NC(=O)CC(C)C)cc(C(=O)NC(C)(C)C)c1,11%,/
Cc1cc(SC(C)C(=O)Nc2c(C)n(C)n(-c3ccccc3)c2=O)nc2ccccc12 (stereo not drawn),?,-24%[1.46 µM]
COc1ccc(NC(=O)c2ccco2)cc1NC(=O)c1ccc(OC(C)C)cc1,-7%,-9%
O=C(Cn1nc(Cc2ccncc2)c2ccccc2c1=O)N1CCN(C(=O)c2ccco2)CC1,3%,4%
CCCc1ccc(S(=O)(=O)Nc2ccc(C)c(NS(C)(=O)=O)c2)cc1,-13%,-27%
CC(C)NC(=O)c1cccc2c(-c3ccc(F)c(F)c3)coc12,-13%,30%
CCOc1cc(CNc2ccc(O)cc2)cc(Br)c1OCc1ccccc1,?,?
CC(C)(CO)NS(=O)(=O)c1ccc2c(c1)oc(=O)c1cc(S(=O)(=O)NC(C)(C)CO)ccc12,-3%,/
COc1ccc(/C=N/NC(=O)c2cc(-c3ccc4c(c3)OCO4)n[nH]2)cc1OC,-17%,-20%
Cc1cc(C(=O)COC(=O)CC2Sc3ccccc3NC2=O)c(C)n1-c1ccccc1 (stereo not drawn),-10%,i
COCCOC1CCN(C(=O)c2cc(COc3ccc(F)cc3F)on2)CC1,-13%,-1%
N#Cc1c(C(F)(F)F)cc(-c2ccc(F)cc2)nc1SCC(=O)O,-3%,2%
CN(C)/C=C1/NC(=S)NC1=O,-4%,6%
CC(=O)Nc1ccc(SCC(=O)NC(=O)c2ccc(S(=O)(=O)N(C)C)cc2)cc1,-9%,-10%
CC1CCN(C(=O)c2ccc(-n3cnnn3)cc2)CC1,-7%,/
CC(C)(O)C#Cc1ccc(C(=O)N2CCC(C(N)=O)(N3CCCCC3)CC2)cc1,-5%,-10%
CCOC(=O)Cc1csc(NC(=O)CSc2cc(Cl)ccc2Cl)n1,-20%,-15%
Cc1onc(-c2ccccc2)c1C(=O)N1CCN(c2ccccn2)CC1,-2%,-9%
COc1ccc(C(=O)NCC(c2ccco2)N2CCc3ccccc32)cc1 (stereo not drawn),-16%,?
CC(=O)c1ccc(NC(=O)C(C)N(C)CC(=O)Nc2ccc(N3CCOCC3)cc2)cc1 (stereo not drawn),2%,8%
COc1ccc2c(/C=N/Nc3ccc(C(=O)O)cc3)c[nH]c2c1,-7%,-14%
Cc1ccc(C)c(-n2c(CNc3ccc(F)cc3)nnc2SCC(N)=O)c1,-9%,-15%
Cc1cn2c(=O)cc(COC(=O)c3ccc(NC(=O)c4ccc(C(C)(C)C)cc4)cc3)nc2s1,-9%,-6%
O=C(NC(Nc1ccccn1)C(Cl)(Cl)Cl)c1ccccc1 (stereo not drawn),8%,-1%
COc1cccc(CNc2nccn(-c3cc(C)cc(C)c3)c2=O)c1,-9%,-14%
O=C(Nc1ccc(NC(=S)NC(=O)c2ccco2)cc1)c1ccc(Br)cc1,-10%,i
COc1ccc(C(=O)COC(=O)[C@H](C)NS(=O)(=O)c2ccc(NC(C)=O)cc2)cc1OC,-7%,-8%
COc1ccc2[nH]c3c(c2c1)CCN1C(=O)C(CC(=O)NCCN2CCOCC2)C[C@H](C(=O)N2CCCCC2)[C@@]31C (stereo partly drawn),2%,i
Cc1ccc2c(c1)N(C(=O)CCC(=O)NCc1ccccn1)CC(C)O2 (stereo not drawn),-8%,-37%
CC(NC(=O)C1CCC(CNc2c(N3CCOCC3)c(=O)c2=O)CC1)c1ccccc1 (stereo not drawn),-2%,9%
CCN(CC)C(=O)C1=C(C)N(CCCOC)C(=O)C(CC(=O)NC(c2ccccc2)c2ccccc2)C1 (stereo not drawn),-5%,-9%
COc1ccc(-c2nc3c4ccccc4n(CC(=O)N4CCN(c5ccccc5F)CC4)c(=O)n3n2)cc1,-6%,-14%
CSc1ccccc1NC(=O)CN(C)Cc1c(O)ccc2ccccc12,-8%,-22%
CCC(C)(C)n1nnnc1C(c1ccc(F)cc1)N1CCC(C(N)=O)CC1 (stereo not drawn),-6%,i
CC1(C)Cc2c(cnn2-c2cccc(F)c2)C(NC(=O)CSc2ccncc2)C1 (stereo not drawn),-8%,-7%

# Next section; it opens with the 5 that closed the last part.
SMILES,Vaccinia Venus,Vaccinia mCherry
CCN(CC)C(=O)C1=C(C)N(CCCOC)C(=O)C(CC(=O)NC(c2ccccc2)c2ccccc2)C1 (stereo not drawn),-5%,-9%
COc1ccc(-c2nc3c4ccccc4n(CC(=O)N4CCN(c5ccccc5F)CC4)c(=O)n3n2)cc1,-6%,-14%
CSc1ccccc1NC(=O)CN(C)Cc1c(O)ccc2ccccc12,-8%,-22%
CCC(C)(C)n1nnnc1C(c1ccc(F)cc1)N1CCC(C(N)=O)CC1 (stereo not drawn),-6%,i
CC1(C)Cc2c(cnn2-c2cccc(F)c2)C(NC(=O)CSc2ccncc2)C1 (stereo not drawn),-8%,-7%
CCCOc1ccc(/C(O)=C2/C(=O)C(=O)N(c3ccccn3)C2c2ccc(OC)cc2)cc1C (stereo not drawn),-18%,i
c1ccc(NC2=NCCS2)cc1,-4%,-9%
C/C(=C\C(=O)c1ccc(Br)cc1)NCc1ccccc1,-11%,/
CCOC(=O)c1c(C)oc2nc(C)nc(N3CCN(c4ccc(C(C)=O)cc4)CC3)c12,-17%,i
C#CC1(NC(=O)N(C)C)CCCCC1,-13%,-10%
Cc1ccc(C)c(NC(=O)C(=O)NCCc2csc(-c3ccc(C(F)(F)F)cc3)n2)c1,-14%,-12%
CCN1CCN(CCCNC(=O)c2ccc3c(c2)sc2nc(-c4ccc(C)cc4)cn23)CC1,?,?
CCOC(=O)C1CCN(Cc2cc(=O)oc3cc(C)c(Cl)cc23)CC1,-9%,i
O=C(CCCn1c(=O)[nH]c2ccsc2c1=O)N1CCN(c2cccc(C(F)(F)F)c2)CC1,-20%,-27%
Fc1ccccc1N1CCN(C(c2ccccn2)c2nnnn2C2CCCCC2)CC1 (stereo not drawn),-13%,i
COc1ccc(S(=O)(=O)N(CC(=O)N2CCc3ccccc3C2)c2ccc(C)cc2)cc1,-10%,-13%
Cc1ccn2c(=O)cc(COc3ccc(NC(=O)c4ccccc4F)cc3)nc2c1,6%,-10%
Cc1cc(Cl)ccc1NC(=S)NCc1ccccc1,-13%,-21%
CCCC(=O)NC(c1cccc([N+](=O)[O-])c1)c1ccc2cccnc2c1O (stereo not drawn),?,4µM*
CCC1(CC)NC(=S)N(Nc2ccccc2)C1=O,-5%,i
O=C1c2ccccc2C(=O)C1c1ccncc1,-2%,-13%
CC(=O)c1cccc(NC(=S)N2CCN(c3ccccn3)CC2)c1,-15%,i
C=CCN(C(=O)Cn1ncc2c1-c1cc(C)ccc1OC2)c1ccccc1,-7%,-22%
Cc1ccc(C(=O)NCC(=O)OCc2cc(=O)n3ccsc3n2)cc1,?,?
OCC[C@@H]1C[C@@H](O)[C@H](O)[C@@]2(CCCc3ccccc3O2)O1,7%,i
Cc1ccc(C(=O)NC(O)C(Cl)Cl)cc1 (stereo not drawn),-5%,-13%
COc1ccc(N2CCN(c3oc(COc4ccc(Cl)cc4)nc3C#N)CC2)cc1,?,/
COc1ccc(CCNC(=O)c2ccc3c(=O)n(Cc4ccco4)c(=S)[nH]c3c2)cc1OC,-6%,-7%
O=C(Nc1ccccc1)c1cccc(-c2nnc(-c3ccccc3)o2)c1,-9%,/

# Part of the list above in order of count of non-hydrogen atoms, ascending:
SMILES,Vaccinia Venus,Vaccinia mCherry
O=C1c2ccccc2C(=O)C1c1ccncc1,-2%,-13%
Cc1cc(Cl)ccc1NC(=S)NCc1ccccc1,-13%,-21%
CC(=O)c1cccc(NC(=S)N2CCN(c3ccccn3)CC2)c1,-15%,i
O=C(Nc1ccccc1)c1cccc(-c2nnc(-c3ccccc3)o2)c1,-9%,/
CCCC(=O)NC(c1cccc([N+](=O)[O-])c1)c1ccc2cccnc2c1O (stereo not drawn),?,4µM*
COc1ccc(CCNC(=O)c2ccc3c(=O)n(Cc4ccco4)c(=S)[nH]c3c2)cc1OC,-6%,-7%

# Next part
SMILES,Vaccinia Venus,Vaccinia mCherry
CN(C)S(=O)(=O)Nc1ccccc1F,-15%,i
CCn1nnnc1SCC(=O)c1cccc(OC)c1,-6%,-11%
COc1ccc(N(C(=O)c2ccccc2OC)C2C=CS(=O)(=O)C2)c(OC)c1 (stereo not drawn),-9%,-2%
COc1ccc([N+](=O)[O-])cc1NCC(=O)c1ccc(C)cc1,-15%,?
COc1ccc(NC(=O)CCNC(=O)c2ccco2)cc1OC,2%,-5%
CC1CN(C(=O)COC(=O)c2cncc(Br)c2)CC(C)O1 (stereo not drawn),-7%,i
CC(=O)c1ccc(OCC(=O)Nc2ccccc2N2CCCC2)cc1,-8%,-16%
Fc1ccccc1COc1ccccc1/C=N/Nc1nc(N2CCCC2)nc(N2CCCC2)n1,-2%,-10%
O=C(NC1CCSC1=O)c1cccc(Cl)c1 (stereo not drawn),-1%,-12%
CC(C)(C)NC(=O)NC(=O)COC(=O)CNS(=O)(=O)c1ccc(Br)cc1Cl,-4%,i
CCOC(=O)Cc1csc(NC(=O)CSc2nnnn2-c2ccc(C)c(C)c2)n1,-4%,i
COc1ccc(-c2ccc3c(=O)cc(-c4ccsc4)oc3c2)cn1,?,-17%
Cc1ccc(/C=N/NC(=O)c2ccc3c(c2)OCCO3)s1,-26%,-22%
CCCCCCC1C(C#N)=C(N)OC2=C1C(=O)CC(C)(C)C2 (stereo not drawn),-8%,-6%
CCc1ccc(C(=O)COC(=O)c2ccccc2OC)cc1,-15%,i
COc1cc2ccccc2cc1C(=O)Nc1cccc(-c2nc3cc(C)c(C)cc3o2)c1,10%,2%
CCc1ccc(-n2c(C)n[nH]c2=S)cc1,-7%,-3%
CC(OC(=O)c1cccc(S(=O)(=O)N2CCCC2)c1)C(=O)NC1CCCCC1C (stereo not drawn),-7%,-27%
CCOc1ccc2sc(NS(=O)(=O)c3ccc(N)cc3)nc2c1,-2%,i
O=C(NCc1ccco1)C1CCCN(S(=O)(=O)c2cnc[nH]2)C1 (stereo not drawn),-3%,i
CCCC(=O)OCCNc1cc(SCc2ccco2)c2nonc2c1[N+](=O)[O-],?,10µM*
Cc1onc(-c2ccc3c(c2)OCO3)c1-c1ccc2[nH]ccc2c1,?,?
Cc1ccccc1-c1cnc(-c2ccncc2)nc1C1CCCN(Cc2ccccc2O)C1 (stereo not drawn),-7%,-11%
CC(=O)N1CC(c2ccccc2)C(c2ccc(Cl)cc2)=N1 (stereo not drawn),-12%,i
COCCN(C(=O)CSc1nc2ccc(Cl)cc2[nH]1)c1c(N)n(Cc2ccccc2)c(=O)[nH]c1=O,-11%,i
Cc1ccc(-n2sc3ccccc3c2=O)cc1,-8%,i
Cc1ccc(Nc2ccc(C(F)(F)F)cc2[N+](=O)[O-])cc1,-4%,-15%
CCCS(=O)(=O)NC(=O)C1(C)CCN(C(=O)c2ccccc2OC(C)=O)C1 (stereo not drawn),-9%,28%
Cc1c(S(=O)(=O)N2CCN(c3ccccc3)CC2)c(=O)n(C)c(=O)n1C,-19%,-26%
COc1cccc(OCCCCSc2ncccn2)c1,-13%,/
Cn1c(=O)n(C)c2cc(CN3C(=O)OC(C)(C)C3(C)O)ccc21 (stereo not drawn),-4%,-15%
N#CCC(=O)Nc1cc(C(F)(F)F)ccc1N1CCOCC1,4%,i
O=C(Nc1ccc2c(c1)OCCO2)C(CCc1ccccc1)N1CCN(c2ccc(F)cc2)CC1 (stereo not drawn),-5%,i
O=C(CCSc1nnc2ccccn12)Nc1ccc(F)cc1,-4%,-16%
Cc1cc(C(=O)COC(=O)c2ccc3c(c2)NC(=O)CS3)c(C)n1CCc1ccc(Cl)cc1,-7%,i
CCOc1ccccc1CNC(=O)CCn1cccn1,-13%,-8%
Cc1nc2ccc(NS(=O)(=O)c3ccc(F)cc3)cc2s1,-18%,?
CC(C)(C)OC(=O)N1CCC[C@H]1c1nnc(SCC(=O)Nc2ccc(Br)cc2)o1,5%[7.34 µM],-2%[7.34 µM]
COc1cc(OC)c(NC(=O)c2cc(S(=O)(=O)N3CCCC3)cn2C)cc1Cl,-13%,-13%

# Outcome played no part in choosing rows; any-hit rate near 0.86%.
